High-throughput results (PubChem)
Ba CapD inh – CapD enzyme inhibition | AID 492967 | z-score (no concentration beside the values) | 0.23% of 140,000 active | purified CapD enzyme, fluorescence intensity read-out; hits give low values; some hits fall short of the stated cut;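 active = z-score under -4 in either of two replicates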;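 also: stock transfer was 100 nL into about 40 µL; score is relative to mean and spread of the plate; one replicate is shown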
AID504770 – growth inhibitors of E. coli YBA685 in a screen for V. cholerae RctB (chromosome II replication) inhibitors; 0.27% of 130,000 active; z-score (concentration not given with the values); E. coli YBA685 rctB-dependent plasmid, OD600 growth, 3 h; hits give low values;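 active = z-score under -2 on both plates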;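 also: wells of about 30 µL received 100 nL stock; score is relative to mean and SD of the test wells; the first replicate is given; strong numbers were not always called active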
* marks the source's active call; other numbers are inactive results; i = inactive; / = not tested or not shown.

mol	Ba CapD inh	AID504770
CC(C)c1ccc(NC(=O)CSCc2csc3ccccc23)cc1	1.19	0.2
COc1cccc(C2c3[nH]c4ccccc4c3CCN2S(=O)(=O)c2cccc(Cl)c2Cl)c1 (stereo not given)	0.205	/
Cc1cccc(CN2CCC(CNC(=O)c3ccc4c(Cl)c5c(nc4c3)CCCC5)CC2)c1	-1.97	0
NC(=O)COC(=O)/C=C/c1ccc(S(=O)(=O)N2CCOCC2)cc1	/	-1.6
COC(=O)C1(C(F)(F)F)N=C(c2ccc(Cl)cc2)OC(N2CCOCC2)=N1 (stereo not given)	-0.365	/
Cc1nnc2c(Nc3ccccc3)nc3ccccc3n12	2.52	1.2
CCn1c(SCC(=O)OC)nnc1-c1c[nH]c2ccccc12	0.295	0.1
O=c1ccc(-c2ccc(S(=O)(=O)N3CCN(c4ccccc4)CC3)s2)n[nH]1	0.055	-1.3
Nc1ccc(Oc2c([N+](=O)[O-])cc(C(F)(F)F)cc2[N+](=O)[O-])c(Cl)c1	-0.535	/
COC(=O)c1c(NC(=O)c2ccccc2)csc1C	-1.21	0.45
COc1ccc(C(=O)NC2CCN(CC(=O)N3CCCCCC3)CC2)cc1	/	-0.2
CCOC(=O)c1cc2c(=O)n3ccccc3nc2n(C2CCCCC2)c1=NC(C)=O	0.55	/
O=C(/C=C/c1ccc2ccccc2n1)OCC(=O)c1ccc2c(c1)OCO2	/	-0.85
NC(=O)c1cc(Cl)c(Cl)cc1C(N)=O	0.435	-0.6
COC(=O)CNC(=O)c1cccc(S(=O)(=O)NCc2ccccc2)c1	/	-0.7
O=C1CCN(C(=O)c2ccc(C(=O)c3ccccc3)cc2)CC1	/	-0.05
COc1ccc(CN2C(=O)c3ccccc3C2=O)cc1	-0.265	-0.65
CCOC(=O)C1=C(C)N=c2s/c(=C3\C(=O)N(C)c4ccccc43)c(=O)n2C1c1ccc(OC)c(OC)c1 (stereo not given)	-0.12	/
Cc1ccc(C(=O)N2CCN(Cc3ccsc3)CC2)cc1	0.19	/
COc1ccccc1C1/C(=C(\O)c2cc(C)ccc2C)C(=O)C(=O)N1CCCN(C)C (stereo not given)	-0.495	-0.85
Cn1nc(-c2ccccc2)cc1NC(=O)CCCC(=O)O	-0.685	-0.55
CN(C)c1ccc(C(=O)OCc2ccccc2)cc1	-0.04	-1.1
Cc1c(C)n(Cc2ccccc2)c2ncnc(N)c12	/	-0.5
O=C(C1=COCCO1)N1CCN(S(=O)(=O)c2cccc(Cl)c2Cl)CC1	/	0.45
Cc1ccc(NC(=O)N/C(=N/O)c2ccc(NC(=O)C3CC3)cc2)cc1Cl	/	0.4
O=C(CN1CCN(C(=O)CN2C(=O)C3CC=CCC3C2=O)CC1)Nc1ccc(Cl)c(C(F)(F)F)c1 (stereo not given)	/	1.75
Cc1cccc(C)c1NC(=O)N(Cc1ccccc1)C(=O)CC#N	1.09	-0.15
CCOC(=O)c1sc(SC)c(C(C)O)c1C (stereo not given)	0.53	0.6
CC(O)c1nc2ccccc2n1CCC1CCCCC1 (stereo not given)	0.22	-0.95
O=C(NCCCN1CCOCC1)c1nc(-c2ccc(F)cc2)no1	-0.31	-0.9
O=C(Nc1sc2c(c1C(=O)Nc1cccc3ccccc13)CCCCC2)c1ccccc1F	10.4	/
COc1cc(C2C(C(=O)Nc3ccc(Br)cn3)=C(C)NC3=C2C(=O)CCC3)ccc1O (stereo not given)	11.1	/
O=C1C2C3C=CC(O3)C2C(=O)N1O (stereo not given)	0.13	/
O=C1CC(C(=O)NCc2ccccc2)N=C(N2CCCCC2)N1 (stereo not given)	/	0.7
O=C(OCCCCl)N1CCN(c2ccc(C(F)(F)F)cn2)CC1	4.23	/
COC(=O)CCSC1CC(=O)N(c2ccccc2)C1=O (stereo not given)	-0.62	-0.2
COc1cccc(NS(=O)(=O)c2ccc3[nH]cc(C(=O)N4CCCCC4)c(=O)c3c2)c1	-0.33	-1.25
Cc1cc(O)ccc1Cl	0.33	0.05
Cc1ccc(N2C(=O)CC2(C(=O)NC2CCCCC2)c2cccs2)cc1 (stereo not given)	5.04	2.35
O=C(O)C1N(Cc2ccccc2)CCCN1Cc1ccccc1	0.145	1.4
Cc1cc(Cl)ccc1OCCCC(=O)N1CCN(C/C=C/c2ccccc2)CC1	0.17	/
CCOC(=O)c1cnc2ccccc2c1NCCO	1.14	-0.65
N#CC1=C(N)Oc2n[nH]c(-c3ccc4c(c3)OCO4)c2C1c1ccc(F)c(Br)c1 (stereo not given)	-0.045	/
O=C(c1ccc(N2CCCS2(=O)=O)cc1)N1CCN(Cc2ccc3c(c2)OCO3)CC1	-0.83	1.35
Cc1onc(-c2ccccc2Cl)c1C(=O)NCCc1ccncc1	0.14	/

Complete entries from above. Screens in order: Ba CapD inh | AID504770
`COc1cc(C2C(C(=O)Nc3ccc(Br)cn3)=C(C)NC3=C2C(=O)CCC3)ccc1O` (stereo not given) in the list: 11.1 | /
`COC(=O)CCSC1CC(=O)N(c2ccccc2)C1=O` (stereo not given) in the list: -0.62 | -0.2
`Cc1cc(Cl)ccc1OCCCC(=O)N1CCN(C/C=C/c2ccccc2)CC1` in the list: 0.17 | /
`O=C(OCCCCl)N1CCN(c2ccc(C(F)(F)F)cn2)CC1` in the list: 4.23 | /
`O=C(Nc1sc2c(c1C(=O)Nc1cccc3ccccc13)CCCCC2)c1ccccc1F` in the list: 10.4 | /

In another format: entries from further up
> Cc1ccc(N2C(=O)CC2(C(=O)NC2CCCCC2)c2cccs2)cc1 (stereo not given)
  Ba CapD inh: 5.04; AID504770: 2.35

> COc1cccc(NS(=O)(=O)c2ccc3[nH]cc(C(=O)N4CCCCC4)c(=O)c3c2)c1
  Ba CapD inh: -0.33; AID504770: -1.25

> COc1cc(C2C(C(=O)Nc3ccc(Br)cn3)=C(C)NC3=C2C(=O)CCC3)ccc1O (stereo not given)
  Ba CapD inh: 11.1; AID504770: /

> O=C(Nc1sc2c(c1C(=O)Nc1cccc3ccccc13)CCCCC2)c1ccccc1F
  Ba CapD inh: 10.4; AID504770: /

(cont.)
Below each compound – Ba CapD inh, AID504770
> Cc1cc(C)c2c(-n3cccc3)c(C(=O)OC3CC(C)OC3=O)sc2n1 (stereo not given)
    /, 1.25
> COc1cc(/C=C/C(=O)C2=C(O)c3ccccc3C2=O)ccc1O
    /, 1.35
> COc1cc(OC)cc(C(=O)OCc2nc3ccccc3s2)c1
    0.095, -0.3
> O=C(O)c1ccc2nc(-c3ccccn3)c(-c3ccccn3)nc2c1
    /, 0.4
> CC(C)NC(=O)c1cc2ccccc2oc1=O
    34.3, 0.55
> Cc1ccc(C(CNC(=O)c2ccccc2)N2CCN(C)CC2)cc1 (stereo not given)
    /, -0.6
> COc1ccc2c(c1)C1=NN(C(C)=O)C(c3ccc(N(C)C)cc3)C1CC2 (stereo not given)
    1.14, 0.65
> OCN1C2=NCN(Cc3ccc(Cl)cc3)CN2c2ccccc21
    /, 0.4
> Cc1ccc(C(=O)CN(Cc2ccccc2)c2ccccc2)cc1
    -0.09, -0.45
> O=C(O)CSCC(=O)N1CCN(C(c2ccccc2)c2ccccc2)CC1
    -0.94, /
> CC(OC(=O)c1ccc(C#N)cc1)C(=O)Nc1cccc(C(F)(F)F)c1 (stereo not given)
    -0.395, -0.7
> CCn1c(C(=O)O)c(CNCc2ccccc2)c2ccc(OC)cc21
    6.04, 0
> O=C(Nc1ncn[nH]1)c1cccnc1
    /, -1.2
> Cc1nn(CC(=O)Oc2ccc(Cl)cc2)c(C)c1Cl
    /, -1.2
> CSc1nc2ccsc2c(=O)[nH]1
    -0.4, -0.8
> CC1CC(Nc2ccccc2)c2ccccc2N1C(=O)COc1ccc2ccccc2c1 (stereo not given)
    -0.12, /
> C=C1C(=O)OC2CC1C(OC(C)=O)C/C(C)=C/CC/C(C)=C/CC[C@]2(C)O (stereo not given in full)
    /, 0.1
> COC(=O)c1c(NC(=O)c2ccc(S(=O)(=O)N3CCCCC3)cc2)sc2c1CCN(C(C)=O)C2
    -0.16, -0.85
> c1ccc(N2CCN(Cc3cn4cccnc4n3)CC2)cc1
    1.25, 0.9
> CCOc1cc(C2Nc3ccccc3C(=O)N2Cc2ccco2)ccc1OCc1ccccc1Cl (stereo not given)
    31.9, /
> O=C(O)Cn1c(SCCOc2ccccc2F)nc2ccccc21
    0.63, /
> CCOC(=O)c1ccc(NC(=O)CSC(=S)N2CCOCC2)cc1
    /, -0.35
> COc1cccc(NS(=O)(=O)c2cc(C(=O)N3CCCCC3)ccc2NCc2ccccc2Cl)c1
    0.235, /
> CC(C)C(C1=C(O)CC(C)(C)CC1=O)C1C(=O)CC(C)(C)CC1=O (stereo not given)
    0.325, -0.3
> N=Cc1c(O)n(-c2ccccc2)c2ccccc12
    -1.55, -0.4
> CCCc1cc(=O)oc2cc(OCn3nnc4ccccc4c3=O)ccc12
    /, -1.6
> CCN1/C(=C/C=c2/sc3nc4ccccc4n3c2=O)C=Cc2ccccc21
    0.185, /
> COc1ccc(NC(=O)CSC2=C(C#N)C(c3ccc(Cl)cc3)C(C(=O)OC(C)C)=C(C)N2)cc1 (stereo not given)
    16.9, /
> CN(C)c1ccc(CNC(=O)c2nccn2Cc2ccc(Cl)cc2)cc1
    0.22, 1.05
> O=C(NC1CCCC1)C(c1ccccc1)N(C(=O)c1ccco1)C1CCCC1 (stereo not given)
    /, 0.15
> NC(=O)N/C(CSCc1c(F)cccc1Cl)=N/O
    0, -1.25
> CC1=CCC2(C(=O)OC(C)(C)OC2=O)C(c2ccccc2)C1 (stereo not given)
    -0.14, -0.9
> COCCNC(=O)c1ccccc1NC(=O)Nc1ccccc1
    2.14, -0.25
> C=C(C)CN=c1scc(-c2cccs2)n1/N=C/c1ccc(O)c(O)c1
    /, 0.7
> O=C(NCCC1=CCCCC1)c1cccnc1SCc1ccccc1Cl
    0.02, 0.05
> O=C1OC(c2ccccc2)=N/C1=C\c1ccccc1
    2.25, /
> CN1C2=C(C(=O)CCC2)C(c2cccc3ccccc23)C2=C1CCCC2=O
    /, -0.1
> O=C(c1ccc(CSc2nc3ccncc3[nH]2)cc1)N1CCCCC1
    -0.555, 0.95
> O=C(Cc1nc2ccccc2[nH]1)C(F)(F)F
    -3.08, -0.25
> O=S1(=O)C=C(SCCN2CCCCC2)c2ccccc21
    0.125, -0.8
> N#CCCN(CCc1ccccn1)C(=S)Nc1cccc(C(F)(F)F)c1
    -0.23, /
> COC(=O)c1c(C(F)(F)F)nc(C(F)F)c(C(=O)O)c1CC(C)C
    0.47, -1.3
> CN(C)CCCNS(=O)(=O)c1cc(Cl)sc1Cl
    -0.49, /
> COc1cccc(-c2csc(N3CCN(C(=S)NCc4ccco4)CC3)n2)c1
    /, 1.55
> Cc1ccc(-c2nc3ccc(C)cn3c2NC(=O)c2ccco2)cc1
    0.155, /
> CC1=C(C(=O)Nc2cccc(C)n2)C(c2ccccc2C(F)(F)F)C2=C(CC(C)(C)CC2=O)N1 (stereo not given)
    23, /
> Ic1ccc(Nc2nc(NCCN3CCOCC3)nc(N3CCCC3)n2)cc1
    0.055, -0.05
> O=C(CSc1nc2cc(C(=O)NCc3ccco3)ccc2c(=O)n1C1CCCCC1)c1ccccc1
    0.635, /
> COc1ccc(C(=O)N/N=C/c2cc3ccccc3o2)cc1OC
    3.25, /
> COc1ccc(N(Cc2cc3cccc4c3n(c2=O)CCC4)C(=O)c2cc(Cl)nc(Cl)c2)cc1
    -0.765, /
> C=CCNC(=O)c1ccc(Br)s1
    i, -0.85
> CN1CCN(c2ncnc3scc(-c4ccc(F)cc4)c23)CC1
    -1.09, -0.35
> O=c1cc(CSc2ccc(Cl)cc2)[nH]c2[nH]n(-c3ccccc3)c(=O)c12
    -2.29, -0.1
> CCn1c(SCc2nc3ccccc3c(=O)[nH]2)nc2ccccc2c1=O
    0.75, 0.15
> COc1ccc(CNC(=O)Cn2ccc3ccccc3c2=O)cc1
    -0.795, /
> O=C(O)c1cc2c(cn1)[nH]c1ccccc12
    66.9, -3.5*
> Cc1cccc(NC(=O)Cn2nnc3ccccc32)c1
    -0.03, -0.75
> COC(=O)c1cc(COC(=O)c2ccc3c(c2)S(=O)(=O)c2ccccc2C3=O)oc1C
    /, 1.05
> CC1(C)c2ssc(=S)c2-c2ccccc2N1C(=O)COc1cccc2ccccc12
    -0.525, /
> CSc1cccc(NC(=S)NCCN(C2CCCCC2)C2CCCC2)c1
    0.835, 0.5

(cont.)
Below each compound – Ba CapD inh, AID504770
> CC[C@H]1OC(=O)[C@H](C)[C@@H](O[C@H]2C[C@@](C)(OC)[C@@H](O)[C@H](C)O2)[C@H](C)[C@@H](O[C@@H]2O[C@H](C)C[C@H](N(C)C)[C@H]2O)[C@](C)(O)C[C@@H](C)CN(C)[C@H](C)[C@@H](O)[C@]1(C)O
    -0.6, -0.55
> Cc1cc(NC(=O)CSc2nc3cc(C(=O)NCC4CCCO4)ccc3c(=O)n2Cc2ccco2)no1 (stereo not given)
    0.68, /
> COc1ccc(CCNC(=O)C2(C)CC3c4ccccc4C2c2ccccc23)cc1OC (stereo not given)
    -0.55, /
> Cc1cccc(-n2c(SCC(=O)NCCc3ccccc3)nc3n[nH]c(C)c3c2=N)c1
    1.67, 0.05
> O=C(O)Cn1cc(/C=C2\C(=O)NN(c3ccccc3)C2=O)c2ccccc21
    -6.26*, -0.65

An excerpt (hit frequency here may not be typical).
